# Assay outcomes deposited in PubChem BioAssay by several laboratories.
# RecA splice inh: Mtb RecA intein splicing inhibitors, primary screen, biochemical, fluorescence, HTS. cell-free RecA intein splicing. inhibition, %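 (about 9 µM by stock and volumes)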. AID 2221, 2009. Protein RecA (Mycobacterium tuberculosis (strain ATCC 25618 / H37Rv)), P9WHJ3. 290,000 tested, 0.75% active; in the data active = inhibition above about 30%; inconclusive = no clear call, values can overlap the other calls;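 also: 0% = vehicle wells and 100% = reference inhibitor control wells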
# Target sequence (P9WHJ3 whole entry, looked up, canonical isoform): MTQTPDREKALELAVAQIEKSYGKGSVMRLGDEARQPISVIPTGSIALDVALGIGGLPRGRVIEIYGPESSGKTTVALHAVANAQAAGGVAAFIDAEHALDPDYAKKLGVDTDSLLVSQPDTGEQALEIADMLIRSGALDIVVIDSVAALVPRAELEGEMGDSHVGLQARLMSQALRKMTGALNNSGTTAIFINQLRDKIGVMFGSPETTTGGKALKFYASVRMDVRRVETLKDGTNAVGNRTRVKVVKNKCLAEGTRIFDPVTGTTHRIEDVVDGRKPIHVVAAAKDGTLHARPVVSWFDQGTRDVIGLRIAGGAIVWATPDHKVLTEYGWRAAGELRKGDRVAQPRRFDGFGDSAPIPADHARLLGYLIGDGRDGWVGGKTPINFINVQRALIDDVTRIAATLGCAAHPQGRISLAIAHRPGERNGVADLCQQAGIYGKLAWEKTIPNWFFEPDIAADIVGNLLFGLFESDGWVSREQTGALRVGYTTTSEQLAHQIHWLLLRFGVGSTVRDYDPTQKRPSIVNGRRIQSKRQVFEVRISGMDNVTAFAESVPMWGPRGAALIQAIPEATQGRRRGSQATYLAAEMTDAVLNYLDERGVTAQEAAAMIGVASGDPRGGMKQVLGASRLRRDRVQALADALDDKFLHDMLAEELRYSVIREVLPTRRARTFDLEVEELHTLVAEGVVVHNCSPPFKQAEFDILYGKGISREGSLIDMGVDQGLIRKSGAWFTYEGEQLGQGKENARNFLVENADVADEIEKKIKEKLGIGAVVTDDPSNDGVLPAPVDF
# YopH PTP inh: YopH tyrosine phosphatase inhibitors, primary screen, biochemical, fluorescence Ex485/Em525 | inhibition, %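 (about 10 µM by stock and volumes)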 | YopH tyrosine phosphatase [Yersinia enterocolitica] | 140,000 tested, 0.16% active | AID 898, 2007;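 active = inhibition of 50% or more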;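 also: controls were vehicle for no effect and minimum signal wells for full effect; inactives centre near -20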
# Mtb betalactam: beta-lactam sensitization of Mtb H37Rv, H37Rv; M. tuberculosis H37Rv growth with meropenem, percent inhibition; hits of this screen are not shown here; inhibition, % at 25 µM; 330,000 tested, 0.27% active; AID 434955, 2010;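 active = about 74% or more and at least 40 points above the plate without the antibiotic, then above 30% in a dose series; inconclusive = first-round hits that could not be retested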;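 also: growth measured after seven days incubation then overnight dye step; 0% = bacteria only wells and 100% = bacteria with antibiotic; twin plates without the antibiotic show which effects depend on it; some results filed as inactive read as strong as hits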
# Arbovirus anti: antivirals against arbovirus infection, primary screen, cell-based, full library, 10K replicate subset | arbovirus infection cell-based antiviral screen | inhibition, % at 10 µM | 200,000 tested, 0.37% active;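 active = inhibition from about 30%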;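 also: bluetongue infection of BSR cells; cell survival read as ATP light after 72 h; 0% = infected wells without compound and 100% = uninfected wells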
# Mtb H37Rv: M. tuberculosis H37Rv growth inhibitors, H37Rv strain (AID 1626). M. tuberculosis H37Rv growth inhibition; higher % means a stronger effect. inhibition, % at 10 µM, or IC50 in µM where a hit was titrated. 220,000 tested, 0.95% active;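 active = confirmed in a dose series; inconclusive = inhibition above 80% but not taken into the dose series; inactive = below 80% or under 30% at every dose of the series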;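 also: bacteria incubated seven days before Alamar blue readout; 0% = bacteria only wells and 100% = bacteria with antibiotic wells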
# Arbovirus anti repeat: further read-out of Arbovirus anti, marked with its call; inhibition, %; measured here: 10K subset replicate screen; many hits read low in the repeat;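 first of two repeat runs on a subset; 0% = infected and 100% = uninfected wells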
# Active calls of the source: *; ? = inconclusive; · = no result given. This is a subset; count on the stated rates, not on these rows.
SMILES,RecA splice inh,YopH PTP inh,Mtb betalactam,Arbovirus anti,Mtb H37Rv,others
Cc1ccc(OCCn2c(=O)cnc3ccccc32)cc1,0.8,0,-3,-14,0%,
Cn1c(=O)c2[nH]cnc2n(-c2ccccc2)c1=O,1.9,-13,-12,5,-10%,
Cc1ccc(NS(=O)(=O)c2c(C(=O)N3CCCCCC3)c(C)n(C)c2C)cc1C,0.1,·,10,·,·,
CCn1c(Cc2ccccc2)nnc1SC(C)C(=O)NC1CC1 (stereo unspecified),-3.3,·,1,·,·,
Cc1ccc(NC(=S)N(CCCN2CCOCC2)Cc2cccs2)c(C)c1,-0.4,-16,2,10,3%,
Cc1ccc(C(=O)O)cc1S(=O)(=O)N1CCCC1,-1.9,-23,-3,13,-13%,
O=C(Cc1ccccc1)N1CCC(C(=O)N2CCN(c3ccc(F)cc3)CC2)CC1,0.7,-6,2,0,-5%,
O=C(O)c1ncsc1-c1ccccc1,0.4,·,-3,·,-1%,
COc1ccc(Cc2nc3ccc(C(=O)NCC4COCCO4)cc3o2)cc1 (stereo unspecified),7.9,·,-16,·,·,
Cc1ccc(NC(=O)c2cc(=O)[nH]c3ccccc23)cc1C,-1.2,·,5,·,·,
Nc1c(C(=O)NCc2ccco2)c2nc3ccccc3nc2n1CCc1ccccc1,-118,9,·,1,10%,
COC(=O)c1sc(N)c(C(=O)OC)c1CSc1nnnn1C,2.0,-27,-10,12,-5%,
CC1(C(O)(C#CCN2CCCCC2)c2ccccc2)CCCC1 (stereo unspecified),0.4,·,4,7,4%,
Cc1cc(=O)oc2cc(NC(=O)CCC(=O)O)ccc12,0.5,-26,-5,11,0%,
COc1ccc(-n2nnnc2SCC(=O)Nc2ccc3c(c2)OCCO3)c(OC)c1,-1.0,-52,9,6,-3%,

# The closing three records of the part above lead into the next:
SMILES,RecA splice inh,YopH PTP inh,Mtb betalactam,Arbovirus anti,Mtb H37Rv,others
CC1(C(O)(C#CCN2CCCCC2)c2ccccc2)CCCC1 (stereo unspecified),0.4,·,4,7,4%,
Cc1cc(=O)oc2cc(NC(=O)CCC(=O)O)ccc12,0.5,-26,-5,11,0%,
COc1ccc(-n2nnnc2SCC(=O)Nc2ccc3c(c2)OCCO3)c(OC)c1,-1.0,-52,9,6,-3%,
CC(Sc1nnc(N)s1)C(=O)Nc1nccs1 (stereo unspecified),-1.3,·,-3,·,·,
Cc1cc2oc(C(=O)Nc3ccc(S(=O)(=O)Nc4onc(C)c4C)cc3)cc(=O)c2cc1Cl,·,·,-1,·,-6%,
Cc1cccc(OCCn2nc(C(=O)O)c3ccccc3c2=O)c1,0.0,1,-2,6,-8%,
CCCCC1=NN(C(=O)c2ccncc2)C(O)(C(F)(F)F)C1 (stereo unspecified),0.1,·,100,·,?,
O=C(COC(=O)c1cccs1)Nc1nnc(-c2ccccc2)o1,0.2,·,81,·,·,
CCOc1ccccc1C(=O)NCC(=O)Nc1ncccc1C,-3.8,·,-2,·,·,
COc1cc(/C=N/NC(=O)c2cc(O)cc(O)c2)ccc1OC(=O)c1ccccc1,6.6,·,5,·,·,
COc1ccc(C2(CNC(=O)/C=C\c3ccco3)CCCC2)cc1OC,9.6,3,5,10,3%,
NC(N)=NS(=O)(=O)c1ccc(NC(=S)NC(=O)/C=C/c2ccccc2)cc1,-1.3,·,9,·,·,
COC(=O)[C@@]1(Cc2ccccc2)[C@@H]2C(=CC(=O)[C@H]2CC(=O)C(=O)N(C)C)CN1C(=O)c1ccccc1,70*,-16,-7,-1,-12%,
Cc1ccc(C(=O)Oc2cccnc2)cc1[N+](=O)[O-],·,-41,87,-1,11%,
Oc1ccc2ccc3[nH]cnc3c2c1,-2.6,·,6,·,3%,
C=CCn1c(O)c(N=NC(=O)CNC(=O)c2ccncc2)c2ccccc21,1.0,·,-2,·,·,
O=C(Nc1cc(=O)[nH]c(=O)[nH]1)c1cc(Cl)ccc1Cl,0.5,·,3,·,·,
C=CCNCCCCOc1c(Cl)cc(C)cc1Br,-0.4,-5,-8,-15,2%,

# 3 compounds already listed, sorted by length of the SMILES, low to high.
SMILES,RecA splice inh,YopH PTP inh,Mtb betalactam,Arbovirus anti,Mtb H37Rv,others
C=CCNCCCCOc1c(Cl)cc(C)cc1Br,-0.4,-5,-8,-15,2%,
C=CCn1c(O)c(N=NC(=O)CNC(=O)c2ccncc2)c2ccccc21,1.0,·,-2,·,·,
Cc1cc2oc(C(=O)Nc3ccc(S(=O)(=O)Nc4onc(C)c4C)cc3)cc(=O)c2cc1Cl,·,·,-1,·,-6%,

# Continuation:
SMILES,RecA splice inh,YopH PTP inh,Mtb betalactam,Arbovirus anti,Mtb H37Rv,others
CCCC1=Nc2cc(C(=O)N3CCC(C(N)=O)CC3)ccc2Sc2ccccc21,1.8,·,1,·,·,
COCCSc1nnc(NC(=O)C2CC(=O)N(c3ccccc3)C2)s1 (stereo unspecified),-0.9,·,-2,-4,-8%,
COc1ccc(Br)cc1C(=O)NC(=S)Nc1cc(-c2nc3ccccc3[nH]2)ccc1C,3.9,-21,86,-27,11%,
NC(=O)C1CCN(C(=O)/C(=C/c2ccccc2)NC(=O)c2ccccc2)CC1,-1.3,·,6,·,·,
COc1cc2nc(CN3CCOCC3)n(CC(=O)NCC(F)(F)F)c(=O)c2cc1OC,-2.8,·,-7,·,-5%,
CCCC1=C(C(=O)OCC)C(c2ccco2)C(C#N)=C(N)O1 (stereo unspecified),-3.0,·,-10,5,-1%,
CC1(C)CC(=O)C=C(NCc2ccncc2)C1,-1.8,1,3,17,-4%,
Cc1cccc(C)c1NC(=O)C1NC(=O)CC1c1ccccc1 (stereo unspecified),0.4,5,12,-1,-3%,
CC1CCN(C(=O)c2ccc(NS(=O)(=O)c3cccs3)cc2)CC1,0.8,·,-3,·,·,
CCN(CC)S(=O)(=O)c1cc(C)ccc1SC,-11,-24,8,-2,0%,
CC(C)(C)c1nn2cnnc2n(/N=C/c2ccc(O)cc2)c1=O,0.4,48,-2,-2,2%,
C=CCn1c(SCC(=O)NC2CC2)nnc1-c1cccc(OC)c1,0.3,·,-9,·,·,
Cc1ccc(OP(=O)(O)Oc2ccc(C)cc2)cc1,-7.3,-33,0,·,-8%,
Cc1cc(N(CN2CCCC2=O)C(=O)c2ccc(OC(C)C)cc2)no1,-1.7,·,0,16,2%,
COCCN(C(=O)CNC(=O)c1ccco1)C(C(=O)NC1CCCCC1)c1cccc(OC)c1 (stereo unspecified),-1.2,1,0,-3,-7%,
CC(C)CC(NC(=O)C(COCc1ccccc1)NC(=O)OC(C)(C)C)C(=O)NN (stereo unspecified),-1.8,·,0,-1,4%,
CCC(C)(C)NC(=O)C(c1ccc(OC)cc1)N(CCOC)C(=O)CCC(=O)Nc1nccs1 (stereo unspecified),-1.6,·,3,4,-3%,
Cc1cccc(-c2nc(CN3CCN(C(=O)C4CCCO4)CC3)cs2)c1 (stereo unspecified),2.3,·,2,·,·,
O=C(NCc1cccc(C(F)(F)F)c1)C1CC(c2cccc(F)c2)=NO1 (stereo unspecified),-5.4,·,-8,·,1%,
O=S(=O)(Nc1ccccn1)c1cccs1,-0.4,·,-1,5,-8%,
CCCc1ccc(C(=O)NC(=O)c2ccccc2O)cc1,2.6,·,6,·,4%,
CCNC(=O)C(=O)Nc1cc2c3c(c1)CCC(=O)N3CCC2,1.6,·,3,·,·,
Cc1cccc(N2C(=O)/C(=C/c3ccc(N4CCN(C)CC4)o3)C(=O)NC2=S)c1C,-2.8,10,-3,4,-3%,
COC(=O)[C@@H](NC(=O)O[C@H]1C(=O)c2ccc(OC)cc2O[C@@H]1c1ccc2c(c1)OCO2)C(C)C,·,-11,·,-5,-8%,
CCOC(=O)C1CCN(C(=O)Nc2ccc(Cl)cc2)CC1,-2.9,-36,0,9,-12%,Arbovirus anti repeat=-1
CC1=C([N+](=O)[O-])C(c2cccc(Br)c2)C2=C(N1)c1ccccc1C2=O (stereo unspecified),8.0,-25,14,-9,-7%,
Cc1cccc(OP(=O)(Oc2cccc(C)c2)OC(c2ccccc2)C(F)(F)F)c1 (stereo unspecified),2.1,-22,5,6,-2%,
O=C(NCCN1CCN(Cc2ccccc2)CC1)C1c2ccccc2C(=O)N2CCc3ccccc3C12 (stereo unspecified),-0.3,-45,-8,-1,1%,
COc1cccc(C2c3[nH]c4ccccc4c3C[C@H]3C(=O)N(CCCOC(C)C)CC(=O)N23)c1 (stereo partly specified),-0.3,·,9,·,·,
O=C1C2CCCN2C(=O)N1CCCCN1CCN(c2ccccc2)CC1 (stereo unspecified),2.9,-15,-7,3,-4%,
CC(=O)C1=C(O)C(=O)N(CCCO)C1c1ccccc1 (stereo unspecified),5.7,-17,5,4,0%,
COc1ccc(CCN2C(=NC(C)=O)SC3CS(=O)(=O)CC32)cc1OC (stereo unspecified),0.0,·,-2,·,-9%,
COc1ccc2c(C)c(C)c(=O)oc2c1OC,-2.6,·,0,5,-4%,
O=C(OCC#CCSc1nnc(-c2ccncc2)o1)c1sc2ccccc2c1Cl,·,1,·,-3,·,
O=C(O)c1ccc(-c2nc(-c3ccc(Cl)c(Cl)c3)cs2)cc1,6.4,·,24,23,8%,
COc1ccccc1NC(=O)c1c(C)nn(-c2ccccc2)c1Cl,6.0,·,72,·,·,
O=C(NCC1CCCO1)c1cccc(Oc2ccccc2)c1 (stereo unspecified),-1.4,·,-8,·,·,
Clc1nc(NCCN2CCOCC2)nc(NCc2ccccc2)n1,-0.1,·,10,4,1%,
O=c1[nH]c(=S)n(CCC2=CCCCC2)c(O)c1/C=N/Nc1ccccc1,-0.5,·,84,·,75%,
C=C1CCN([C@@H](CC(C)C)C(=O)NCc2ccc(OC)cc2)S(=O)(=O)c2ccccc21,4.0,·,-1,·,-4%,
Oc1c(Br)cc(Br)cc1CNn1cnnc1,-4.1,·,0,·,·,
O=C1CCCN1CCCn1cnc2c([nH]c3ccc(F)cc32)c1=O,-0.9,-10,-13,0,4%,
COc1ccc(NC(=O)C(c2ccccc2)N2CCN(c3ccccn3)CC2)cc1Cl (stereo unspecified),-0.3,·,7,0,5%,
COC(=O)c1ccc(CSc2nc3ccccc3o2)cc1,6.4,-26,82,3,1%,
CCn1ccc(=N)cc1,-0.5,-21,-5,6,-3%,

# Of the compounds above, these have bromine.
SMILES,RecA splice inh,YopH PTP inh,Mtb betalactam,Arbovirus anti,Mtb H37Rv,others
C=CCNCCCCOc1c(Cl)cc(C)cc1Br,-0.4,-5,-8,-15,2%,
COc1ccc(Br)cc1C(=O)NC(=S)Nc1cc(-c2nc3ccccc3[nH]2)ccc1C,3.9,-21,86,-27,11%,
CC1=C([N+](=O)[O-])C(c2cccc(Br)c2)C2=C(N1)c1ccccc1C2=O (stereo unspecified),8.0,-25,14,-9,-7%,
Oc1c(Br)cc(Br)cc1CNn1cnnc1,-4.1,·,0,·,·,

# (further entries)
SMILES,RecA splice inh,YopH PTP inh,Mtb betalactam,Arbovirus anti,Mtb H37Rv,others
O=C(C[N+]1(CC#Cc2ccccc2)CCOCC1)c1ccc(Cl)cc1,3.8,·,7,-1,4%,
COCCOC(=O)c1c(C)nc(SCC(=O)Nc2cccc3ccccc23)c(C#N)c1-c1ccco1,0.0,-4,12,-5,-4%,
NC(=S)NNC(=O)Nc1ccc(Cl)c(Cl)c1,-1.0,-18,-5,-2,6%,
CS(=O)(=O)N(CC(=O)NC1CCCC1)Cc1ccc(F)cc1,1.8,·,-3,-1,3%,
O=C(/C=C/c1ccc2c(c1)OCO2)NCc1ccc(F)cc1,0.5,-8,-2,-9,1%,
CCOC(=O)c1c(N2C(=O)C3C4C=CC(O4)C3C2=O)sc2c1CCCC2 (stereo unspecified),1.7,-13,-9,0,·,
CC(C)n1cnnc1SCC(=O)NC(=O)c1ccccc1,-2.8,·,-10,·,·,
Fc1ccc(COc2ccc(Br)cc2CNCc2ccncc2)cc1,4.1,-12,?,-15,12%,
CCOC(=O)c1nn(-c2ccccc2)c(=O)cc1OCC(=O)Nc1cc(C)ccc1C,1.1,·,-4,·,·,
